# From PubChem BioAssay
# VACV mCherry inh: inhibitors of vaccinia virus infection (mCherry reporter signal); Vaccinia virus mCherry reporter infection, fluorescence; about a quarter of the inactives have no number; Potency, µM (doses to about 36.5 µM), without a hit: at the top dose activity change, negative = inhibition, most hits filed as inhibitors; 310,000 tested, 0.63% active; AID 720579; active = well fitted inhibition curve with a large enough effect; inconclusive = small, poorly fitted or top-dose-only effect; inactive = no such curve, though single readings can be large or run the other way; tested in A549 cells; further: nearly all actives have a fitted effect of over 35% in size; inactives centre near -10
# Vaccinia Venus: inhibitors of vaccinia virus (Venus reporter). 330,000 tested, 0.46% active. Potency, µM (top dose mostly 36.5 µM), for inactives: at the top dose activity change, negative = inhibition, actives largely listed as inhibitors. Vaccinia virus Venus reporter expression, fluorescence; active means well fitted inhibition curve with a large enough effect; inconclusive means small, poorly fitted or top-dose-only effect; inactive means no such curve, though single readings can be large or run the other way; tested in A549 cells; further: nearly all actives have a fitted effect of over 30% in size; inactives centre near -10
# Active calls of the source: *; i = inactive; ? = inconclusive; / = not tested or not shown; & = joins results of further samples; [ ] = another dose, or the depositor's remark. On the % scale 0 is the no-effect control and ±100 the full control effect; potency means the concentration at half of the fitted maximal effect. Compounds were not picked by outcome; about 0.87% have a hit in one of these screens.
# Fields: VACV mCherry inh	Vaccinia Venus
> Cc1cccc(-c2nc(CSCC(=O)N3CCN(c4ccccc4)CC3)c(C)o2)c1
  -9%	-16%
> O=C(Nc1ccccc1)Nc1cc(Cl)cc(Cl)c1
  /	11µM*
> O=C(Cn1c(=O)n(CCc2c[nH]c3ccccc23)c(=O)c2cccnc21)Nc1ccccc1F
  ?	-19%
> O=C(COc1ccccc1F)NC1CC(=O)N(c2ccc3c(c2)OCCO3)C1 (stereo unspecified)
  -1%	-1%
> COc1ccccc1C(=O)NC(C)C(c1cccs1)N1CCOCC1 (stereo unspecified)
  -12%	-10%
> O=C(CSc1ncn[nH]1)Nc1nc(-c2cccc([N+](=O)[O-])c2)cs1
  ?	-19%
> Cc1ccc([C@H]2C[C@@H](n3cc(C4CC4)nn3)[C@H](O)CN2CC2CCCCC2)cc1
  i	?
> N#Cc1c2n(c3c(=O)n(Cc4ccc(Cl)cc4)cnc13)CCCC2
  /	-16%
> Cc1cc(NC(=O)CCn2c(=O)sc3ccccc32)no1
  -13%	-8%
> C=CCOC(=O)C1=C(C)NC(SCC(=O)Nc2ccc(C)c(Cl)c2)=C(C#N)C1c1ccco1 (stereo unspecified)
  ?	?
> Cn1ccc(C(=O)N2CCCc3ccccc32)n1
  /	-13%
> CSCc1ccc(C(=O)NCC(c2cccs2)N2CCOCC2)cc1 (stereo unspecified)
  -3%	-9%
> CS(=O)Cc1cc(Sc2ccccc2)nc(-c2cccnc2)n1 (stereo unspecified)
  -3%	3%
> Cc1cc(=O)[nH]c2nnc(SCc3ccc(Cl)c(Cl)c3)n12
  -7%	-20%
> Cc1cc(C)c2[nH]c(=O)c(CN(Cc3ccc4c(c3)OCO4)Cc3nnnn3C3CCCC3)cc2c1
  -27%	-26%
> O=C(NCc1ccc2c(c1)OCO2)C1COc2ccccc2O1 (stereo unspecified)
  -7%	-7%
> CN(CC(=O)Nc1c(Cl)cccc1Cl)C(=O)c1cc(-c2cccs2)nn1-c1ccccc1
  0%	-13%
> CC(CC(=O)Nc1cc([N+](=O)[O-])ccc1Cl)c1ccccc1 (stereo unspecified)
  -18%	-6%
> COc1ccccc1C(=O)Nc1cc(C)on1
  i	-9%
> COc1ccc(Cl)cc1-c1cc2c(c(OC)c1)OCCN(Cc1cccn1-c1nccs1)C2
  -12%	-4%
> COc1ccc(S(=O)(=O)N2CCC(C(=O)N3CCCCCC3)CC2)cc1
  i	-11%
> CS(=O)(=O)c1ccc(C(=O)Nc2ccc(N3CCOCC3)cc2)c(Cl)c1
  -10%	-6%
> CCc1ccc(CN(C)C(=O)c2cc(COc3cccc(C(F)(F)F)c3)on2)nc1
  ?	-24%
> Cc1nn(-c2nc3ccccc3s2)c(N)c1-c1ccccc1
  -23%	-18%
> O=C(NC[C@H]1CCCO1)c1cccc2c1C(=O)c1ccc(-c3ccc(F)cc3OCc3ccccc3)cc1S2(=O)=O
  ?	?
> CCCOc1ccc(CNC(=O)CCCn2nc(C)c3sc4ccccc4c3c2=O)cc1
  -8%	-21%
> COCCNC(=O)C(c1ccc(F)cc1)N(Cc1ccco1)C(=O)CCC(=O)Nc1nccs1 (stereo unspecified)
  /	-2%
> Cc1cc(Cl)ccc1C(O)c1ncc(-c2cccc3ccccc23)[nH]1 (stereo unspecified)
  -10%	-4%
> CCOC(=O)N1CCC(NC(=O)CSCc2nc(-c3sccc3C)oc2C)CC1
  -17%	?
> CCOC(=O)C1CCN(S(=O)(=O)c2ccc3c(c2)NC(=O)C(C)S3)CC1 (stereo unspecified)
  -24%	-19%
> O=C1c2ccccc2CN1CCSC(=S)N1CCOCC1
  -9%	-7%
> Nc1nonc1-n1nnc(C(=O)N/N=C/c2cccnc2)c1-c1cccs1
  -1%	-6%
> COC(=O)c1cnn(-c2ccc(C(=O)Nc3ccc(OC(F)(F)F)cc3)cc2)c1N
  -23%	-19%
> CCOC(=O)c1[nH]c(C)c(/C(O)=C2\C(=O)C(=O)N(CCN(C)C)C2c2ccco2)c1C (stereo unspecified)
  -17%	-12%
> CCOC(=O)[C@]12Cc3cc(Cl)ccc3[C@H]1N(C)C(=O)c1cc(OC)ccc12
  ?	?
> COc1ccc(NC(=O)COCc2cc(-c3ccco3)on2)cc1
  -15%	-11%
> O=C(Cn1c(=O)oc2ccccc21)NCc1ccco1
  /	-13%
> COc1ccccc1N1CCN(c2nc3ccccc3n3cnnc23)CC1
  -21%	-12%
> CC(C)c1ccc(NC(=O)C2CCCN(S(=O)(=O)c3cccc4cccnc34)C2)cc1 (stereo unspecified)
  -2%	-19%
> Cc1c(C(=O)OCC(=O)N2CCC(C)CC2)oc2ccccc12
  -8%	-23%
> CS(=O)(=O)c1ccc(C2=C(CNC(=O)c3nccs3)[C@H]3CC[C@@H](C2)N3Cc2ccco2)cc1
  -18%	0%
> CNC(=O)C1(C)C=CC2(CCCCC2)N1C(=O)OC (stereo unspecified)
  i	-10%
> COc1cc(NC(=O)CS(=O)(=O)c2ccccc2)cc(OC)c1OC
  /	-7%
> CCOc1ccc(N(C(C)C(=O)Nc2cccnc2)S(C)(=O)=O)cc1 (stereo unspecified)
  i	-20%
> Cc1cc(OCC(O)CNC(C)(C)C)ccc1Cl (stereo unspecified)
  -8%	-12%

# Of the compounds above, 3 have an aryl thioether with sulfur outside any ring.
# Fields: VACV mCherry inh	Vaccinia Venus
> O=C(CSc1ncn[nH]1)Nc1nc(-c2cccc([N+](=O)[O-])c2)cs1
  ?	-19%
> CS(=O)Cc1cc(Sc2ccccc2)nc(-c2cccnc2)n1 (stereo unspecified)
  -3%	3%
> Cc1cc(=O)[nH]c2nnc(SCc3ccc(Cl)c(Cl)c3)n12
  -7%	-20%

# Other records:
# Fields: VACV mCherry inh	Vaccinia Venus
> COc1ccc2[nH]cc(CCNC(=O)Cc3c(F)cccc3Cl)c2c1
  -5%	-12%
> Cc1c(Cl)cccc1NC(=O)CCN1C(=O)C2CC=CCC2C1=O (stereo unspecified)
  -14%	-23%
> O=C(c1ccc([N+](=O)[O-])c(CS(=O)(=O)c2ccc(Cl)cc2)c1)N1CCCCC1
  -28%	-11%
> CCOc1ccc(/C=C/C(=O)Nc2ccc(OC)cc2[N+](=O)[O-])cc1
  /	0%
> COc1ccc(-c2nc3ccccc3s2)cc1NC(C)=O
  -15%&-16%	-23%&-19%
> CC(C)Oc1ccc(C(=O)NCCc2csc(-c3cccc(F)c3)n2)cc1
  -9%	-1%
> CCOC(=O)c1c(NC(=O)Nc2ccc(F)cc2)sc(C(=O)N(C)C)c1C
  -6%	-1%
> Cc1nc2ccccc2n1CC(=O)N/N=C\c1ccccn1
  -3%	-9%
> CCOC(=O)C(NC(=O)c1ccccc1)(Nc1nnc(C)s1)C(F)(F)F (stereo unspecified)
  -10%	-13%
> Cc1cccc(NC(=S)N(CCN(C)C)C(C)c2cccnc2)c1 (stereo unspecified)
  -15%	-26%
> OCCCNCc1ccc(-c2ccccc2)cc1
  -9%	-3%
> CC(C)Cc1nc(N2CCOCC2)c(C#N)c2c1COC(C)(C)C2
  /	-2%
> CCC1=C(CC2NCCc3ccccc32)CC2c3cc(OC)c(OC)cc3CCN2C1 (stereo unspecified)
  3.5µM*	3.5µM*
> CC(=O)Oc1ccc2cc(-c3nc4ccccc4n3C)c(=O)oc2c1
  -17%	-4%
> COc1ccc(S(=O)(=O)Nc2cccc3c2O[C@H](CN(C)Cc2ccc(Oc4ccccc4)cc2)[C@@H](C)CN([C@H](C)CO)C3=O)cc1
  -19%	?
> Cc1cc(C(=O)CN2C(=O)C(=O)N(Cc3ccccc3)C2=O)c(C)n1-c1ccccc1F
  -4%	?
> COc1cccc(C(=O)NCc2ccc(-c3nc4ccccc4s3)cc2)c1
  /	-27%
> CCc1c(C)sc(NC(=O)Cc2ccccc2OC)c1C(=O)N1CCOCC1
  i	0%
> CCOC(=O)CN1N=C(/C=C/c2ccccc2)CCC1=O
  -15%	-5%
> COC(=O)c1ccc(-c2c(-c3ccccc3)ncc3cc(OC)c(OC)cc23)cc1
  i	-24%
> CNC(=O)/C(C#N)=C1/SC(Cc2ccc(F)cc2)C(=O)N1c1ccccc1 (stereo unspecified)
  -6%	5%
> N[C@@H](Cc1ccc(O)cc1)c1nnc([C@H](CCC(=O)O)NC(=O)C2CCNCC2)o1
  i	-2%
> O=C(c1ccccc1)c1nc[nH]c1C(=O)Nc1ccccn1
  /	-8%
> Cc1ccccc1CN1CCN(Cc2ccc3cccc(F)c3n2)CC1CCO (stereo unspecified)
  -19%	8%
> CCc1cnc2c(c1SCC(=O)N1CCCCC1)c(=O)n(C)c(=O)n2C
  -17%	-18%
> CCc1c(C(=O)NNC(=O)Nc2ccc3c(c2)OCO3)csc1C
  i	-5%
> CCCCNC(=O)CCn1c(=O)c2ccccc2n(Cc2ccc(Cl)cc2)c1=O
  -9%	-14%
> Cc1ccc(NC(=S)N2CCCN(Cc3ccc(F)cc3)C2)c(C)c1
  i	-15%
> Cc1[nH]c2ccc3ncccc3c2c1C
  i	-1%
> O=C(CN1CCN(c2ccccc2F)CC1)Nc1ccccc1F
  16%	10%
> Cc1ccc(Cn2c(CCC(=O)O)nc3ncccc3c2=O)cc1
  i	-12%
> Cc1cccc(C)c1NC(=O)CN1C(=O)CCSc2ccc(S(=O)(=O)N3CCCC3)cc21
  -15%[7.34 µM]	-6%[7.34 µM]
> Cc1ccc(CNc2nc(C)nc3sc4c(c23)CCC4)cc1
  ?	-27%
> O=C(Nc1cccc2cccc(NC(=O)c3ccco3)c12)c1ccco1
  -10%	1%
> C=CCNc1ccccc1S(=O)(=O)NCc1ccccc1
  -6%	-27%
> NS(=O)(=O)c1ccc(CCNC(=O)C2CCN(c3ncnc4c3nc3n4CCCCC3)CC2)cc1
  -5%[7.34 µM]	-3%[7.34 µM]
> Cc1ccc(Nc2cccccc2=O)cc1
  i	-11%
> O=S(=O)(Nc1nc2ccccc2s1)c1cc(F)ccc1F
  -10%	-12%
> O=C(CSc1nnc(-c2ccccc2F)o1)OCc1ccccc1
  i	0%
> O=C(CN1CCSCC1)N/N=C/c1ccccc1F
  -15%	-9%
> CC[C@@H]1[C@H]2CCCC(=O)N3CC[C@@H](C[C@@H]1OC(=O)NCc1ccccc1)[C@@H]23
  -13%	-10%&-5%
> COCC(C)NCc1cccc(C)c1 (stereo unspecified)
  -3%	-1%
> CCOC(=O)[C@]12Cc3cc(N(C)C)ccc3[C@H]1N(Cc1ccccc1)C(=O)c1ccccc12
  -27%&-5%	-27%&-20%
> COC1CCCN(C(=O)c2ccc3nc(Cc4cccc(Cl)c4)oc3c2)C1 (stereo unspecified)
  -6%	-7%
> CSc1ccc(CCNC(=O)c2cc(C)nc3c2c(C)nn3-c2ccccc2)cc1
  -40%	?
> COC(=O)C(=O)Nc1nnc(COc2ccccc2)s1
  -12%	-1%
> C=C1CCC(C2CC(=O)OC2=O)C(=O)CCC2C1CC2(C)C (stereo unspecified)
  i	0%
> CCOC(=O)c1cccc(NC(=O)CSc2nc3cccnc3n2C)c1
  ?	?
> CCCN1C(=O)C(O)(C2CC(=O)CC(C)(C)O2)c2ccccc21 (stereo unspecified)
  /	-5%
> O=C(CNCC1CCCO1)N1CCCc2ccccc21 (stereo unspecified)
  -11%	-3%
> COc1cc2c(=O)c(S(=O)(=O)c3ccc(C)cc3)cn(Cc3cccc(C)c3)c2cc1OC
  -29%	-24%
> Cc1nc2ccc(S(=O)(=O)CCC(=O)Nc3ccc(C)c(C)c3)cc2s1
  -6%	-6%
> CN(c1nc2nonc2nc1NC1CC1)C1CCOC1 (stereo unspecified)
  -14%	-12%
> Cc1cc(C(=O)NC(Cc2c[nH]c3ccccc23)C(=O)O)c(C)o1 (stereo unspecified)
  -7%	3%
> O=C(O)CN1C(=O)C2C3C=CC(C3)C2C1=O (stereo unspecified)
  -8%	0%
> COc1ccc(/C=N\NC(=O)c2cc(O)c(O)c(O)c2)cc1CN1CCN(c2ccc(F)cc2)CC1
  -14%	-19%
> Cc1nn(C(=O)c2cccc([N+](=O)[O-])c2)c(C)c1Cl
  i	-2%
> CCN1C[C@@H]2[C@@H]3C(=O)N(C)C(=O)[C@@H]3[C@](Cc3ccccc3)(C(=O)OC)N2C1=NCc1ccccc1
  -17%	-7%
> O=C(Nc1ccccc1-c1nnn(CC(=O)N2CCN(c3ccccc3)CC2)n1)c1cccs1
  ?	?
> COc1ccccc1OCCNC(=O)/C=C/c1ccc([N+](=O)[O-])cc1
  ?	-12%

# (cont.)
# Fields: VACV mCherry inh	Vaccinia Venus
> Cc1nc(C)n(CC(=O)NCC2Cc3cc(-c4ccsc4)cc(Cl)c3O2)n1 (stereo unspecified)
  -7%	-5%
> O=C(NCC(c1ccc(F)cc1)N1CCOCC1)c1cccnc1Sc1ccccc1Cl (stereo unspecified)
  i	-8%
> COc1cc(NS(=O)(=O)c2ccc(-n3cccn3)cc2)cc(OC)c1
  -25%	-28%
> COC(=O)C(=O)/C=C(\O)c1ccc(C)cc1
  -5%	-12%
> Cc1ccc(S(=O)(=O)CC(=O)Nc2cccc(C)n2)cc1
  -12%	4%
> Cc1ccc(CN2CC(C(=O)Nc3cccc(S(=O)(=O)N4CCCCC4)c3)CC2=O)cc1 (stereo unspecified)
  -10%	-18%
> Cc1c(C(=O)NCCNc2ncc(C(F)(F)F)cc2Cl)cccc1[N+](=O)[O-]
  0%	-13%
> Cc1ccc2oc(=O)c3cnn(CC(=O)NCc4ccccc4Cl)c3c2c1
  2%	-4%
